# RE007 growth inh – less growth of the S. pombe RE007 Vpr strain; S. pombe RE007 Vpr strain, BacTiter-Glo ATP luminescence, 24 h; control for the full effect not named in the record; Potency, µM (doses to about 92.2 µM), for inactives: top-dose activity change, negative = less growth; 360,000 tested, 0.21% active; active = well fitted falling curve with a large enough effect; inconclusive = small, poorly fitted or top-dose-only effect; inactive = no such curve, though single readings can be large or run the other way;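 also: % is scaled to controls: 0 for no effect and ±100 for the full control effect; nearly all actives have a fitted effect of over 50% in size; the assay follows cell death caused by Vpr and the record does not say whether a fall means rescue or toxicity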
#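 Fission yeast RE007 carrying one integrated HIV-1 vpr copy, seeded at OD 0.01 in PMG+AL medium with 23 nL pinned compound. Grown 24 h at 30 degrees; viability read by BacTiter-Glo luminescence after 5 min.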
# StopGo reporter – lowers the luciferase signal of an FMDV 2A StopGo reporter. human cells with a luciferase reporter of 2A StopGo recoding; control for the full effect not named in the record. Potency, µM (top dose mostly 57.9 µM), without a hit: at the highest dose signal change, negative = less light. 410,000 tested, 1.2% active. AID 1159524; active = well fitted falling curve with a large enough effect; inconclusive = small, poorly fitted or top-dose-only effect; inactive = no such curve, though single readings can be large or run the other way; tested in HEK293T cells; also: % is scaled to controls: 0 for no effect and ±100 for the full control effect; nearly all actives have a fitted effect of over 45% in size; luciferase light after 4 h
# SARS PLpro yeast – inhibitors of SARS-CoV papain-like protease in yeast; Potency, µM (top dose mostly 32.9 µM), for the others: at the highest dose activity, positive = growth rescue; 330,000 tested, 0.19% active; S. cerevisiae expressing SARS-CoV PLpro, growth rescue; control for the full effect not named in the record; active means well fitted rising curve with a large enough effect; inconclusive means small, poorly fitted or top-dose-only effect; inactive means no such curve, though single readings can be large or run the other way; also: 0% is about no effect; nearly all actives have a fitted effect of over 55% in size; growth read by luminescence after 48 h
# Active calls of the source: *; ? = inconclusive; & = joins results of further samples; [ ] = dose if it differs, or a comment. Potency is read from the fitted curve at half-maximal effect. These rows are one share of the data (hit frequency here may not be typical).
SMILES,RE007 growth inh,StopGo reporter,SARS PLpro yeast
CN(CC(=O)Nc1ccc(OC(F)(F)F)cc1)C(=O)/C=C/c1ccco1,-27%,-11%,-5%
O=C(COC(=O)c1ccc(F)c(S(=O)(=O)N2CCOCC2)c1)NC1CCCCC1,6%,-18%,1%
CCOc1ccc(C(=O)CSCC(=O)O)cc1,4%,-9%,1%
CCOC(=O)C1CCN(C(=O)COC(=O)c2oc3ccc(OC)cc3c2C)CC1,-6%,-13%,0%
CCN(CC(=O)Nc1ccc(Br)cc1)C(=O)c1nc2nc(C)cc(C)n2n1,-1%,-13%,-16%
CCN(C[C@H]1N[C@@](CC)(C(=O)OC)[C@H]2C(=O)N(Cc3ccccc3)C(=O)[C@@H]12)C(=O)NC(C)C,12%,-13%,1%
O=C(CCN1C(=O)CSc2ccccc21)Nc1ccc(OC(F)(F)F)cc1,29%,-29%,2%
O=C(c1ccc(-c2ccc(Cl)cc2)o1)N1CCN(S(=O)(=O)c2cccs2)CC1,6%,-22%,5%
COc1cc(C)c(NC(=O)c2cc(C3CC3)nc3c2cnn3C(C)C)cc1OC,-4%,?,-6%
O=C(NCc1ccccn1)C(=O)NN=C1CCCCCCC1,-4%,39%[activator],0%
COc1ccc(NC(=O)COC(=O)CCc2nc3ccccc3c(=O)[nH]2)cc1Cl,4%,-7%,-5%
CC(C)CC1Nc2ncnc(N3CCN(c4ccccn4)CC3)c2N(Cc2ccccc2)C1=O (configuration not stated),0%&-16%,-11%&-16%,0%
CNc1snc(C)c1C(=O)OCC(=O)N(C)Cc1ccccc1,8%,-25%,5%
Cc1ccc(S(=O)(=O)N2CCCCC2)cc1NC(=O)CNC(C)c1ccc(Cl)c(Cl)c1 (configuration not stated),-10%,-14%,1%
CC(C#N)N1CCN(S(=O)(=O)c2ccc3c(c2)CCC3)CC1 (configuration not stated),-5%,5%,3%
CCOC(=O)/C=C/[C@H]1CC(c2ccccc2)(c2ccccc2)CO1,-2%,?,9%
Cc1ccc(S(=O)(=O)N2CCN(C3CC(=O)N(c4ccc(F)cc4)C3=O)CC2)cc1C (configuration not stated),-12%,-13%,-8%
Cc1cccc(C)c1NC(=O)COC(=O)c1cc(S(=O)(=O)Nc2ccc(Cl)cc2)ccc1O,-3%,8%,-1%
Cc1noc(C)c1COc1ccc(C(=O)N2CCC(C(N)=O)CC2)cc1,3%,-3%,1%
O=C(NCc1cccnc1)c1ccccc1NS(=O)(=O)c1ccc(Br)cc1,-1%,8%,-3%
O=S(=O)(NC1=NCCC1)c1cccc(NS(=O)(=O)c2ccc(F)c(Cl)c2)c1,14%,25%,2%
Oc1ccc[n+](CC(O)c2ccccc2)c1 (configuration not stated),-2%,5%,0%
O=C(NC(Cc1ccccc1)C(=O)O)/C(=C/c1ccco1)NC(=O)c1cccc([N+](=O)[O-])c1 (configuration not stated),-2%,-4%,-3%
Cc1ccc(S(=O)(=O)N2CCOCC2)cc1C(=O)NC(C)CCc1ccccc1 (configuration not stated),22%,-21%,8%
COc1ccc(C(CNC(=O)c2c(C)nn(Cc3ccccc3)c2Cl)N2CCOCC2)cc1 (configuration not stated),0%,-19%,-4%

# (continued)
SMILES,RE007 growth inh,StopGo reporter,SARS PLpro yeast
CC(NC1=NCCS1)c1ccccc1 (configuration not stated),-18%,-4%,-1%
O=C(CNC(=O)c1cc(=O)[nH]c2ccccc12)Nc1ccc(F)c(F)c1,0%,-8%,1%
O=C(O)c1cc2c(cc1Cl)N1CCCCCC1=NS2(=O)=O,17%,-5%,0%
COC(=O)c1c(C)[nH]c(C(=O)C(C)OC(=O)C2CC(=O)N(c3ccc(C)cc3)C2)c1C (configuration not stated),-4%,-28%,-3%
CN(Cc1cccs1)C(=O)CSc1nc2ccccc2[nH]1,-5%,67%[activator],0%
COCC(=O)N[C@@H]1c2ccccc2CC[C@@H]1OCc1ccccc1,3%,?,-11%
COCCn1c(SCC(=O)NC(=O)Cc2ccccc2)nc2ccccc2c1=O,5%,0%,0%
CC1=NN(c2ccccc2)C(=O)/C1=C/C=C/c1ccc(N(C)C)cc1,-6%,?,-1%
CCN1C(=O)[C@H]2[C@H]3CN=C(SCc4ccc(C)cc4)N3[C@@](C)(C(=O)OC)[C@H]2C1=O,-8%,-24%,-5%
Cc1[nH]c2ccccc2c1SCC(=O)N1CCC(C)CC1,-3%,21%,-3%
O=C(CCCN1C(=O)NC2(CCCC2)C1=O)N1CCN(S(=O)(=O)c2ccccc2)CC1,1%,-27%,0%
CCN(CC(=O)Nc1c(F)cccc1F)C(=O)c1nn(C)c(=O)c2ccccc12,11%,-18%,3%
CN(C(=O)c1ccc(NC(=O)C2CCCN(C(=O)OC(C)(C)C)C2)cc1)C1CCCCC1 (configuration not stated),-13%,-31%,3%
COc1ccc(-c2nc3cc(C)ccn3c2NC2CCCCC2)cc1SC1CCCCC1,-20%,?,-2%
CCOC(=O)[C@H]1[C@H]2COc3ccccc3[C@@H]2N2C(=O)[C@@H](C)NC(=O)[C@@]12C,-4%,-12%,4%
CC1CCC2(CC1)NC(=O)N(CC(=O)Nc1ccc3c(c1)OCO3)C2=O (configuration not stated),-11%,12%,5%
O=C(NC1C/C=C\C(c2ccccc2)N(c2ccccc2)C(=O)C1)OCC1c2ccccc2-c2ccccc21 (configuration not stated),-17%,-14%,-3%
CC(=O)c1c(C)[nH]c(C(=O)COC(=O)c2ccc(Cl)nc2)c1C,10%,-12%,2%
COC(=O)C1=C(c2cccc(OCc3ccccc3)c2)C[C@@H]2CC[C@H]1N2C(=O)NCc1ccc(N(C)C)cc1,7%,-13%,4%
CCc1noc(C)c1C(=O)NNC(=O)c1nn(C)c(=O)c2ccccc12,3%,-21%,-1%
C[C@@H]1CN([C@H](C)CO)C(=O)c2cc(NC(=O)Cc3cn(C)c4ccccc34)ccc2O[C@H]1CN(C)C(=O)Nc1ccc2c(c1)OCO2,-9%,-1%,-31%
Cc1cccc(OCC(=O)OCC(=O)NCC2CCCO2)c1C (configuration not stated),3%,15%,5%
CC[C@]1(C(=O)OC)[C@H]2C(=O)N(C)C(=O)[C@H]2[C@H]2CN(C)C(=NC)N21,54%,-17%,6%
O=C(Nc1cc(Cl)ccc1-n1cncn1)c1cccc(S(=O)(=O)N2CCOCC2)c1,11%,-9%,-5%
CCN1C(=O)[C@@H]2[C@@H](c3ccc(SC4CCCCC4)c(OC)c3)N3CCC[C@@]3(C(=O)OC)[C@@H]2C1=O,5%,-18%,-24%

# Two compounds drawn at random from the list so far:
SMILES,RE007 growth inh,StopGo reporter,SARS PLpro yeast
Cc1cccc(OCC(=O)OCC(=O)NCC2CCCO2)c1C (configuration not stated),3%,15%,5%
O=C(O)c1cc2c(cc1Cl)N1CCCCCC1=NS2(=O)=O,17%,-5%,0%

# Returning to the listing, repeating the 2 entries before the break.
SMILES,RE007 growth inh,StopGo reporter,SARS PLpro yeast
O=C(Nc1cc(Cl)ccc1-n1cncn1)c1cccc(S(=O)(=O)N2CCOCC2)c1,11%,-9%,-5%
CCN1C(=O)[C@@H]2[C@@H](c3ccc(SC4CCCCC4)c(OC)c3)N3CCC[C@@]3(C(=O)OC)[C@@H]2C1=O,5%,-18%,-24%
Cn1c2ccccc2c2c(=O)oc3ccccc3c21,-22%,21%,-23%
COc1ccc(-c2nnc(SCC(=O)NC3CC3)o2)cc1,9%,44%[activator],10%
COc1ccc(O)c(C(=O)c2cnc3c(c2)CN(C)C(=O)N3)c1,4%,13%,-7%
COCc1[nH][nH]c(=O)c1C=Nc1ccc(OC(F)(F)F)cc1,9%,-7%,4%
CNC(=O)C(=O)NCCCN1CCOCC1,-7%,0%,-8%
O=C(Nc1ccc(F)c(Cl)c1)c1ccccc1,-4%,22%,-4%
O=C(N/N=C/c1ccc(Br)s1)Nc1ccccc1,0%,29%,-1%
Cc1cc(C)c(C(N)=O)c(SCC(=O)c2cc(C)n(-c3cc(C)on3)c2C)n1,-3%,?,1%
COc1ccc(C(=O)NCC(c2ccco2)N2CCCC2)cc1S(=O)(=O)N1CCCCC1C (configuration not stated),-24%,-3%,4%
CC[C@H]1c2[nH]c3ccccc3c2C[C@H]2C(=O)N(c3ccc(F)cc3)C(=O)N21,9%,?,-2%
O=C(COC(=O)c1cncc(Br)c1)Nc1ccc(N2CCCCC2)cc1,-11%,22%,-4%
CCn1c2ccccc2c2cc(NC(=O)C(C)OC(=O)c3ccc(NC(=O)CC#N)cc3)ccc21 (configuration not stated),1%,-9%,0%
CCC[C@H]1NC(=O)[C@H](C)N(C)C(=O)C(C)(C)C(=O)C(C)NC(=O)[C@H](Cc2ccc(OC)cc2)N(C)C(=O)[C@H](C(C)C)N(C)C(=O)CNC(=O)[C@H](CC(C)C)N(C)C(=O)CNC(=O)[C@H]([C@@H](C)CC)OC(=O)[C@H]1C (some centres not stated),0%,0%,-3%
COc1cccc(C(=O)O[C@H]2[C@H](C)NS(=O)(=O)[C@H]3C[C@@H]4C=C[C@]23O4)c1,0%,-2%,3%
CNc1ccc(C(=O)OCC(=O)NC(=O)NC2CCCC2)cc1[N+](=O)[O-],8%,-18%,-5%
CCOc1ccc(NC(=O)CC2C(=O)N(c3ccc(OC)cc3)C(=O)N2CCc2ccc(OC)c(OC)c2)cc1 (configuration not stated),-5%,6%,-2%
CC(C)Cn1c(N)c(C(=O)COC(=O)c2cc3ccccc3cc2O)c(=O)n(C)c1=O,14%,?,-1%
O=C(Nc1cccnc1)NC1CCCCC1,-29%,22%,1%
CCCc1nc(SCC(=O)NNC(=O)c2ccc(OC)cc2)c2ccccc2n1,-1%,-29%,2%
CCCCCCCC(=O)Nc1cc(C(=O)NCCC)ccc1N1CCC2(CC1)CC(c1cccc(Br)c1)=NO2,-5%,-20%,-3%
Cc1csc(=O)n1CCC(=O)OCC(=O)Nc1ccc(S(N)(=O)=O)cc1,-13%,-8%,0%
CC(C)(C)[C@@H]1COC(=O)[C@@H](Cc2ccc(F)cc2)CC/C=C\C[C@@H](CC(=O)N(CCO)Cc2ccccc2)C(=O)N1,2%,-11%,-10%
COc1ccc(NC(=O)Nc2cccc3c2O[C@H](CN(C)S(=O)(=O)c2ccc(OC)cc2)[C@@H](C)CN([C@H](C)CO)C3=O)cc1,7%,-7%,1%
COC(=O)c1ccn(CSc2c(F)c(F)cc(F)c2F)n1,7%,13%,1%
C=CC(=O)Nc1sc2c(c1C(N)=O)CCCC2,-2%,?,1%

# The closing 3 records of the section above open the next one.
SMILES,RE007 growth inh,StopGo reporter,SARS PLpro yeast
COc1ccc(NC(=O)Nc2cccc3c2O[C@H](CN(C)S(=O)(=O)c2ccc(OC)cc2)[C@@H](C)CN([C@H](C)CO)C3=O)cc1,7%,-7%,1%
COC(=O)c1ccn(CSc2c(F)c(F)cc(F)c2F)n1,7%,13%,1%
C=CC(=O)Nc1sc2c(c1C(N)=O)CCCC2,-2%,?,1%
Cc1ccc(-c2ccc(/C=N/O)o2)cc1[N+](=O)[O-],-26%,32%[activator],-14%
Cc1cc(C(=O)OCC(=O)NC2CC2)c2ccccc2n1,-2%,-21%,1%
CCc1ccc2c(c1)C(=O)C[C@]1(CCC[C@H](C)C1)O2,14%,-13%,2%
C[C@H](CO)N1C[C@H](C)[C@@H](CN(C)Cc2ccc(C(=O)O)cc2)Oc2c(NS(=O)(=O)c3cccs3)cccc2C1=O,15%,-3%,2%
CCC(CO)Oc1cc(NC(=O)c2ccccc2[N+](=O)[O-])c2ncn(C(C)C)c2c1 (configuration not stated),-1%,-6%,-1%
CCOC(=O)N1CCC(NC(=O)c2cc(C(=O)Nc3cccc(C(F)(F)F)c3)ccc2CO)CC1,9%,?,-2%
CCOC(=O)C1=CN(Cc2cccc(Br)c2)S(=O)(=O)NC1C (configuration not stated),9%,12%,2%
O=C(/C=C/c1cccc(F)c1)OCC(=O)c1ccc[nH]1,-11%,44%[activator],-3%
CCCCN(C(=O)C1COc2ccccc2O1)c1c(N)n(CCC)c(=O)[nH]c1=O (configuration not stated),7%,-24%,-8%
Cc1nnc(NC(=O)CSc2ccc3nnc(-c4ccccn4)n3n2)s1,-17%,3%,-2%
CCOC(=O)C1=CN(Cc2cccc(-c3ccc(F)cc3)c2)S(=O)(=O)N(C)C1C (configuration not stated),-16%,?,-7%
CCc1ccccc1NC(=O)CN(C)C(=O)COC(=O)c1cccnc1Cl,-7%,-17%,-1%
C=CCC[C@@H](Cc1ccc(F)cc1)C(=O)OC[C@@H]1CCCN1C(=O)[C@H](CC=C)CC(=O)N[C@H](CO)Cc1ccccc1,9%,?,-3%
Cc1ccc(S(=O)(=O)Nc2cccc(C(=O)N3CCC(C(N)=O)CC3)c2)cc1,1%,34%[activator],-3%
CCc1nnc(NS(=O)(=O)c2ccc(NC(=O)/C=C/c3ccc(F)cc3)cc2)s1,-9%,-25%,0%
N#C/C(=C\c1ccc(O)c(O)c1)C(=O)N1CCCC1,18%,3%,3%
CCN1CCN(C(=O)c2cc(-c3ccco3)nc3ccccc23)CC1,-9%,-8%,-4%
